Screens as filed in PubChem BioAssay.
S aureus helic = inhibitors of S. aureus replicative helicase, primary screen, biochemical, fluorescence unwinding readout; inhibition, %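 (tested at about 80 µM)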; hit rate 0.05% among 120,000; AID 485395, 2010; purified S. aureus helicase, fluorescence unwinding assay; about half of the hits fall short of the stated cut;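 active = both duplicates at 50% or more, or one of them with a favoured structure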;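 note: 0% = mean of negative control wells and 100% = mean of positive control wells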
MgrA DNA FP = S. aureus MgrA activity modulators, primary screen, biochemical, S. aureus Newman, fluorescence polarization; AID 602314, 2012; hit rate 0.13% among 84,000; MgrA-DNA binding; inhibition, %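 (about 10 µg/mL by stock and volumes)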;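 active = above 50% in either of two replicates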;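 note: 0% = protein plus DNA without compound and 100% = DNA alone without protein; higher means less MgrA bound to DNA so lower polarization; one replicate is shown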
Starred values were filed as active, the others as inactive; · = not tested or not shown. Some of the compounds tested, so the mix of outcomes need not match the whole.

SMILES	S aureus helic	MgrA DNA FP
COc1ccccc1-n1cc(-c2ccccc2)c2c(SCC(C)C)ncnc21	9	1.8
CCSCCOC(=O)C1=C(C)NC2=C(C(=O)CC(c3ccc(OC)cc3)C2)C1c1cc(Cl)c(O)c(OC)c1 (stereo unspecified)	·	-1.5
CCc1c(C)c2ccc(O)c(CN(C)C)c2oc1=O	19	1.3
CCOC(=O)N1CCN(C(=S)NC(=O)c2ccc(F)cc2)CC1	19	-1.9
O=C(c1cc(S(=O)(=O)N2CCCC2=O)c(Cl)cc1Cl)N1CCCCC1	8	-2.9
Cc1cc(C)c(OC2CN(C(c3ccccc3)c3ccccc3)C2)c(C)c1	·	-1.5
Cc1cc(/C(O)=C2\C(=O)C(=O)N(CCCN(C)C)C2c2ccc(O)cc2)ccc1OCC(C)C (stereo unspecified)	-4	3.8
O=C(NCc1ccccc1Cl)c1ccc(Cn2cc(Cl)cn2)cc1	5	·
CC(C)C(=O)NCCc1ccc(S(N)(=O)=O)cc1	-11	·
CCOc1ccc(NC2=NC(C)(C)N=C(N)N2)cc1	13	-0.7
CCOc1ccc2c(c1)C1C=CCC1C(c1ccc(C(=O)OC)cc1)N2 (stereo unspecified)	7	-1.2
O=C(CNC(=O)c1ccc(Br)o1)NC1CCCc2ccccc21 (stereo unspecified)	-1	·
CCOC(=O)c1c(-c2cccs2)csc1NC(=O)CSc1nncn1C	10	·
CCCn1cnc2cc(NCc3ccccc3O)ccc21	0	1.0
CCOC(=O)COc1ccc(-c2nn[nH]n2)cc1	11	-4.2
CN(Cc1ccccc1)S(=O)(=O)c1cc2c3c(c1)CCN3C(=O)CC2	7	·
Cc1ccc(NC(=O)CC2SC(=NC3CCCC3)NC2=O)cc1Cl (stereo unspecified)	10	·
O=C(NC(=S)NCc1cccs1)c1cccs1	3	3.3
c1ccc2c(c1)NC(CN1CCOCC1)CO2 (stereo unspecified)	12	1.5
CNC(=O)c1cnc2c(c(C)nn2-c2ccccc2)c1Cl	-5	·
COc1cc(C(=O)c2c(C)c(C)c(C)c(C)c2C)cc(OC)c1OC	·	0.1
COC(=O)c1ccc2c(c1)N(CC(=O)N1CCOc3ccc(C)cc31)C(=O)CS2	9	-0.1
COc1ccc(-c2nn(CCC(=O)O)c3nc(C)cc(C)c23)c(OC)c1	-18	-0.3
CC(C)(C)OC(=O)N1CCOCCN(C(=O)OC(C)(C)C)CCOCC1	23	·
O=C(CSc1ncnc2[nH]ncc12)CSc1ncnc2[nH]ncc12	1	·

Sorted by number of heavy atoms (highest first): part of the list above.
SMILES	S aureus helic	MgrA DNA FP
CCSCCOC(=O)C1=C(C)NC2=C(C(=O)CC(c3ccc(OC)cc3)C2)C1c1cc(Cl)c(O)c(OC)c1 (stereo unspecified)	·	-1.5
Cc1cc(/C(O)=C2\C(=O)C(=O)N(CCCN(C)C)C2c2ccc(O)cc2)ccc1OCC(C)C (stereo unspecified)	-4	3.8
COC(=O)c1ccc2c(c1)N(CC(=O)N1CCOc3ccc(C)cc31)C(=O)CS2	9	-0.1
COc1ccccc1-n1cc(-c2ccccc2)c2c(SCC(C)C)ncnc21	9	1.8
Cc1cc(C)c(OC2CN(C(c3ccccc3)c3ccccc3)C2)c(C)c1	·	-1.5
CCOc1ccc2c(c1)C1C=CCC1C(c1ccc(C(=O)OC)cc1)N2 (stereo unspecified)	7	-1.2
COc1cc(C(=O)c2c(C)c(C)c(C)c(C)c2C)cc(OC)c1OC	·	0.1
O=C(NCc1ccccc1Cl)c1ccc(Cn2cc(Cl)cn2)cc1	5	·
O=C(CNC(=O)c1ccc(Br)o1)NC1CCCc2ccccc21 (stereo unspecified)	-1	·
CCCn1cnc2cc(NCc3ccccc3O)ccc21	0	1.0
CCOc1ccc(NC2=NC(C)(C)N=C(N)N2)cc1	13	-0.7
CCOC(=O)COc1ccc(-c2nn[nH]n2)cc1	11	-4.2
O=C(NC(=S)NCc1cccs1)c1cccs1	3	3.3

(cont.)
SMILES	S aureus helic	MgrA DNA FP
COc1cccc(NC(=S)N(CCC#N)CCC#N)c1	·	-0.9
O=C(CN(Cc1ccco1)Cc1cccs1)c1ccc[nH]1	-11	·
OC(c1ccccc1)c1cccc(C(F)(F)F)c1 (stereo unspecified)	-6	2.9
CC(C)(C)c1ccc(OC(=O)CCC(=O)O)cc1	16	-1.1
c1ccn(-c2nnc(C3CC3)s2)c1	·	0.0
N#CCc1ncc(-c2cc3cc(Br)ccc3oc2=O)s1	5	·
COc1ccc2c3c(ccc2c1)C(=O)CCC3	2	2.2
O=S1(=O)CC=C(S(=O)(=O)c2ccccc2)C1	2	·
C=CCn1c(=O)c2c(C)c(C)sc2n2c(Nc3ccc(C(=O)OCC)cc3)nnc12	12	-0.6
Cc1cc(=O)oc(C)c1C(=O)NCc1c(F)cc(F)cc1F	6	·
Cn1c(=O)c2c([nH]c(=O)n2C)n(C)c1=O	13	-1.7
COC(=O)c1ccc(CN2CCN(c3ccccc3OC)CC2)cc1	0	-0.9
Cn1nccc1C(=O)Nc1sc2c(c1C#N)CCC2	14	·
CNC(=O)/C(=C\c1ccc(Cl)cc1)NC(C)=O	-2	-5.2
O=C1N=c2ccccc2=C1c1sc(Nc2nccs2)nc1O	-124	·
O=C(NC(=S)OCc1ccccc1Cl)c1ccco1	37	0.9
CCOC(=O)c1ccc(NC(=O)Cn2cnc3c(nnn3-c3cccc(Cl)c3)c2=O)cc1	-20	·
CC1CC(C)CN(C(=O)Cn2c(=O)n(-c3ccc(Cl)cc3)c(=O)c3c4c(sc32)CCC4)C1 (stereo unspecified)	5	3.1
Cc1cccc(-n2c(SC3CCOC3=O)nnc2-c2c[nH]c3ccccc23)c1 (stereo unspecified)	-4	·
COc1ccc(C(C(=O)NCc2cccs2)N(Cc2ccco2)C(=O)Cn2nnc(-c3cccs3)n2)cc1 (stereo unspecified)	-4	1.8
O=C(COC(=O)Cc1cccc(C(F)(F)F)c1)NCc1ccccc1Cl	2	-0.2
Cc1cn(CCC#N)c2ccccc12	·	-1.5
CN1CCN(C(c2cccs2)N2CCN(C)CC2)CC1	-2	·
COc1cc(-c2cc(-c3ccccc3)nc(SCC(=O)Nc3cc(C)on3)c2C#N)cc(OC)c1OC	·	0.3
CCOC(=O)c1cnn(CCOC(=O)c2ccccc2)c1NC(=O)c1ccccc1	6	·

The listing continues.
SMILES	S aureus helic	MgrA DNA FP
COc1ccc(NC(=O)c2oc3ccccc3c2NC(=O)c2ccccc2)cc1	14	0.4
O=C1CCC(C(=O)Nc2ccc(S(=O)(=O)NCc3ccco3)cc2)=NN1	27	·
CCCN1C(=O)c2ccccc2NC1c1ccc(OC)c(CSc2ccccn2)c1 (stereo unspecified)	·	3.8
CC(C)c1ccc(NC(=S)N(Cc2ccccc2)C(C)C)cc1	·	0.2
COc1ccc(OC)c(C2C3=C(CC(C)(C)CC3=O)Nc3ccccc3N2C(=O)c2ccccc2)c1 (stereo unspecified)	·	-0.2
Nc1ccccc1C(=O)NCCCn1ccnc1	·	-1.0
CC(=O)N1N=C(COc2ccc3c(c2)OCO3)OC1c1ccc(C)cc1 (stereo unspecified)	6	·
CCOc1ccc(OCC(=O)OCc2ncc(-c3ccccc3)o2)cc1	-11	·
COc1ccc(OC)c(NC(=O)Cc2coc3ccc(C)cc23)c1	-17	·
O=C(COc1ccccc1)n1nc(-c2ccc(Cl)cc2)nc1NCc1ccco1	39	·
COc1ccc(C2=NN3C(C2)c2cc(Cl)ccc2OC32CCCC2)cc1 (stereo unspecified)	·	1.2
CC(C)(C)C(=O)Nc1nc2ccccc2s1	-2	·
CCC(=O)N1c2ccccc2-c2nnc(SC)nc2OC1c1ccccc1 (stereo unspecified)	11	0.2
CC1CCCC(C)N1C(=O)Cn1cc(/C=C2/C(=O)Nc3ccccc32)c2ccccc21 (stereo unspecified)	7	1.2
Nc1cc(N)nc(SCC(=O)N2CCCC2c2ccc3c(c2)OCCCO3)n1 (stereo unspecified)	-5	·
CC(C)OC(=O)/C(C#N)=C\c1cccn1C	2	-0.6
CCN(CC)S(=O)(=O)c1ccc(-c2cn3cccnc3n2)cc1	9	2.3
O=C(Cc1ccccc1)NN1CCCCC1	-1	·
Cc1cccc(C)c1N=C1Oc2ccccc2NC1(C)c1ccccn1 (stereo unspecified)	10	-1.4
CCn1c(C)cc(/C=C2\SC(=Nc3cc(Cl)ccc3C)NC2=O)c1C	5	-0.3
C=CCSc1ncc(Cl)c(C(=O)Nc2ccc(S(N)(=O)=O)cc2)n1	9	·
CN(C)C(=O)c1c(-c2ccccc2)oc2ccc(O)cc12	-14	·
Fc1ccc(CN2CCN3CCCC3C2C2CCCCC2)cc1F (stereo unspecified)	6	-8.1
Cn1c(O)c(C=NC23CC4CC(CC(C4)C2)C3)c(=O)n(C)c1=O	-1	-1.6
Cc1ccc(S(=O)(=O)Nc2cc(C(F)(F)F)ccc2Oc2ccc(C)c3c2CCC3)cc1	·	1.8

(cont.)
SMILES	S aureus helic	MgrA DNA FP
COc1ccc(S(=O)(=O)Nc2ccc3[nH]ncc3c2)cc1Br	5	·
O=S(=O)(/N=C\c1cc(Br)ccc1O)c1cccs1	10	-0.9
CNC(=O)C1CC(=O)N(C2CCCCCC2)C1 (stereo unspecified)	7	0.5
CC(C)COc1ccc(C(=S)N2CCCCC2)cc1	-9	1.7
CC1C(=O)NC(=O)N1c1ccc(Cl)cc1 (stereo unspecified)	5	·
Cn1c(-c2ccccc2)nc2ccccc21	·	0.4
CCSc1nnc(SCC(=O)c2ccc(OC)cc2OC)s1	-4	·
Cc1csc(-c2cc3ccc(O)c(CN4CCCC4)c3oc2=O)n1	-177	·
Cc1[nH]c2ccccc2c(=O)c1CNCc1ccccc1	15	·
CCc1ccccc1NC(=O)CN(C)Cc1nc(N)nc(Nc2ccccc2C)n1	-17	·
O=C(CSc1ccc(Br)cc1)c1ccco1	3	·
CC(SCc1nc2sc3c(c2c(=O)[nH]1)CCCC3)C(=O)Nc1nccs1 (stereo unspecified)	-6	·
CC(NC(=S)NCCN1CCCCC1)c1ccccc1 (stereo unspecified)	3	-2.0
CC[N+](CC)(CC)CCOc1cccc(OCC[N+](CC)(CC)CC)c1OCC[N+](CC)(CC)CC	·	0.3
O=C(O)c1cccc(Nc2nc(-c3ccccn3)cs2)c1	5	1.1
CCN(CC)c1ccc(NC(=O)c2ccc(Cl)s2)cc1	27	-2.5
O=C(Nc1cccc(C(F)(F)F)c1)C1CCCO1 (stereo unspecified)	2	-2.6
O=c1c2[nH]c3ccc(Cl)cc3c2ncn1CCCN1CCCC1	27	·
Cc1oc(C(C)(C)C)cc1C(=O)N1CCC(O)(c2ccc(Cl)cc2)CC1	·	-0.8
CCOC(=O)c1sc2ccc(NC(=O)c3ccccc3Cl)cc2c1C	·	0.3
C=CCOc1ccc(C(=O)O)cc1OC	-3	-4.2
O=C(OCN1C(=O)c2ccccc2C1=O)c1cccc(S(=O)(=O)N2CCCC2)c1	-9	·
Cc1[nH]n(C)c(=O)c1N=Nc1ccc(C(F)(F)F)cc1	·	0.6
CCOC(=O)C(C)Sc1ncnc2c1nnn2Cc1ccc(Cl)cc1 (stereo unspecified)	7	·
O=C(Nc1ccc(OC(F)(F)F)cc1)Nc1cccc(C(=O)O)c1	·	2.5

Individual results from the list:
O=C(O)c1cccc(Nc2nc(-c3ccccn3)cs2)c1 in S aureus helic is entered as 5
O=C(Nc1cccc(C(F)(F)F)c1)C1CCCO1 (stereo unspecified) in S aureus helic is entered as 2

Other results follow:
SMILES	S aureus helic	MgrA DNA FP
COc1ccc(Cl)cc1-c1nc(C=Nc2ccc(Br)cn2)c(O)o1	·	3.2
O=C(OCc1ccc(Cl)cc1)c1ccccc1NCc1ccco1	9	·
CN(C(=O)CCc1nc2ccccc2s1)c1ccccc1	3	-2.4
Cc1ccc(-c2c(C(=O)O)c3ccccc3[nH]c2=O)cc1	·	-4.3
c1ccc(NC2=Nc3ccccc3CC2)cc1	-6	0.2
O=C(OCn1nnc2ccccc2c1=O)C1CSC2(c3ccc(F)cc3)CCC(=O)N12 (stereo unspecified)	-10	·
Cn1c(SCc2nc(-c3ccccc3)no2)nnc1C1CCCCC1	3	·
CCOc1ccc(-c2c(C#N)c(N)nc3sc(C(=O)c4ccccc4)c(N)c23)cc1	·	10
CC(=O)N1CCOc2ccc(S(=O)(=O)N3CCOc4ccccc43)cc21	23	·
CC(=O)Oc1cc2oc(=O)c3c(c2cc1Cl)CCC3	13	-0.8
CC(=NC(C)C)C1=C(O)CCC1=O	2	1.5
Cc1nn(-c2ccccc2)c2c1CC(C#N)(c1ccccn1)C1CCCN21 (stereo unspecified)	13	·
Cc1cc(N2CCC(C)CC2)nc2ccc(NC(=O)CCC(=O)N3CCC(C)CC3)cc12	9	1.7
COC(=O)c1cc(-c2ccc(S(=O)(=O)N3CCOCC3)cc2)c(C(F)(F)F)s1	·	-2.6
CCOc1ccc(NC(=O)C2c3ccccc3Oc3ccccc32)cc1	0	2.4
O=C(/C=C/c1ccco1)OCc1ccccc1	9	29
CC1CN(C(=O)Cn2nc(-c3cccc(-n4cccc4)c3)oc2=O)CC(C)O1 (stereo unspecified)	-3	-3.3
O=C(CCNC(=O)NC12CC3CC(CC(C3)C1)C2)Nc1ccc(-n2cnnn2)cc1	13	·
O=C(c1cccs1)n1ccc(-c2ccc3c(c2)CCO3)n1	·	-1.5
c1ccc(CCc2c[nH]c3ccccc23)nc1	·	1.5
CCOC(=O)c1sc(NC(=O)C(CC)OC(=O)c2c3c(nc4ccccc24)CCC3)nc1C (stereo unspecified)	-2	-1.9
COc1ccc(-c2nc(N)ncc2-c2ccc3c(c2)OCCCO3)c(O)c1	19	·
Cc1oc(C(C)(C)C)cc1C(=O)NC1Cc2ccccc2C1	·	-1.4
CNC(=O)c1ccsc1NC(=O)CN1C(=O)c2ccccc2C1=O	8	·
O=C(c1cnc2c3ccccc3nn2c1)c1ccccc1O	-69	·
Cc1cc(C)nc(-n2nc(C)c3c2NC(=O)CC3c2ccccc2)n1 (stereo unspecified)	-16	·
COc1ccc(Oc2c(Cl)cnn(-c3ccc(Cl)cc3)c2=O)cc1	·	-3.3
COc1cc(C2=C/C(=C3/N=C(c4ccco4)OC3=O)c3ccccc3O2)cc(OC)c1OC	18	·
